Compound activity from PubChem BioAssay.
NPYLR7 agonist: agonists of mosquito NPYLR7 receptor, primary screen, cell-based, Aedes aegypti, calcium fluorescence, mosquito biting behavior; Aedes aegypti neuropeptide Y-like receptor 7 (NPYLR7); HEK293T NPYLR7/Galpha15, GCaMP6s calcium fluorescence; activation, % at 10 µM; 270,000 compounds, 0.15% hits; in the data active = activation above about 40%;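 note: 0% = vehicle and 100% = reference agonist at the receptor; some compounds past the cut are filed as inactive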
NPYLR7 agonist max-min: further read-out of NPYLR7 agonist, marked with its call; activation, %; measured here: Max-Min RFU normalised activation; some inactives read as strong as hits;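 span of the calcium signal over five minutes; 0% = vehicle and 100% = native peptide agonist; compound fluorescence can raise it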
Numbers without * were called inactive; & = joins results of further samples. A portion of the library, so the mix of outcomes need not match the whole.

SMILES | NPYLR7 agonist | NPYLR7 agonist max-min
Cc1cc(N2CCN(CC#N)CC2)n2nc(C(F)(F)F)c(-c3ccccc3)c2n1 | 3 | 6
Cc1cccc(N2CCC(N=CN3CCOCC3)=N2)c1 | -8 | -10
CC(C)C1CN(C(=O)c2ccccc2-n2cncn2)CCC(=O)N1CC1CC1 (stereo unspecified) | 0 | 5
COCCOCC(=O)Nc1nc(-c2cc(C)c(C)cc2C)c(C)s1 | 5 | 3
CN1C(=O)CC(C(=O)Nc2ccccc2F)SC1=Nc1ccc(F)cc1 (stereo unspecified) | 7 | 5
CCCCCCCCCCCC(=O)N(Cc1nc(C(=O)OCC)cs1)C1CC1 | -6 | 0
CCCCc1cnc2c(c1SCc1ccccc1F)c(=O)n(C)c(=O)n2C | 0 | 4
CC(=O)c1cc(F)ccc1OCC(=O)N1CCNC1=O | 0 | 0
Cc1ccc(Nc2nc(N(C)C)nc3nccnc23)cc1 | 11 | 11
N#Cc1c(N)n[nH]c1CCCNC1CC2CC1C1CCCC21 (stereo unspecified) | 4 | 4
Oc1c(I)cc(I)c2cccnc12 | -3 | -11
COc1ccccc1NC(=O)CCn1cnc(-c2ccccc2)c1-c1ccco1 | 6 | 0
CSc1cccc(CN(C)Cc2c(CO)cnc(C)c2O)c1 | 22 | 10
CN(C)CCCN1C(=O)C(O)=C(C(=O)c2cccs2)C1c1ccc([N+](=O)[O-])cc1 (stereo unspecified) | 2 | -1
CNC(=O)[C@@H]1C[C@@H](n2cc(CN(C)C(=O)c3sccc3C)nn2)CN1 | -1 | -3
CCn1nc(C)c(CNC(=O)c2ccc(OC3CCN(C(=O)COC)CC3)cc2)c1C | 14 | 4
COc1ccc(-c2noc(-c3c(SC)nn(CC(=O)Nc4cc(C)cc(C)c4)c3N)n2)cc1OC | -2 | -11
COc1ccc(Br)cc1/C=C1N=C(/C=C/c2ccc(C)cc2)OC\1=O | 1 | 2
Cn1ncc2c(Nc3cccc([N+](=O)[O-])c3)ncnc21 | 0 | 8
Cc1nnc(SCC(=O)Nc2cc(C(C)(C)C)no2)s1 | 12 | 12
COc1cc2c(CCNC(C)=O)c[nH]c2cc1Cl | 13 | -7
O=c1[nH]cnc2sc3c(c12)CCC3 | 11 | 12
O=C(NCc1cccnc1)C(C1CCCC1)N1CCN(C(=O)c2ccc(C(F)(F)F)cc2)CC1 (stereo unspecified) | 9 | 12
COc1cc(NC(=O)CSCc2cc(C)on2)c(OC)cc1Cl | 5 | 4
O=C(c1csc(=Nc2ccccc2)n1Cc1cccs1)N1CCC(NC(=O)C(F)(F)F)CC1 | 11 | 14
SMILES | NPYLR7 agonist | NPYLR7 agonist max-min
Cc1nsc(NC(=O)N2CCCC(COc3ccccc3C)C2)n1 (stereo unspecified) | 11 | 7
Cc1ccc(C(=O)OCC(=O)N2CCC(Cc3ccccc3)CC2)s1 | 1 | -2
O=c1cc(CSCc2ccc([N+](=O)[O-])cc2)[nH]c(=O)[nH]1 | -6 | -5
Nc1cc2c(cc1Cl)OCO2 | 10 | 17
CC(C)c1cc(C(=O)Nc2nn(C(C)C)cc2C#N)n(C)n1 | -21 | -20
O=C(C1CCCC1)N1CCN(Cc2cc3c(cc2O)OCO3)CC1 | -2 | -2
Cc1cccc(Nc2nc(-c3ccccc3)cs2)c1C | 1 | 13
Cc1nc2ccccc2c(=O)n1-c1ccc(Cl)c(NC(=O)c2ccc([N+](=O)[O-])cc2)c1 | 9 | 2
CC(NC(=O)CN1CCC(O)(C#N)CC1)c1ccccc1 (stereo unspecified) | 5 | 3
Cc1nc(-c2ccccc2F)sc1C(C)NC(=O)Cn1cncn1 (stereo unspecified) | 0 | 30
COC(=O)CCCCC(=O)N1CCN(c2nccc(-c3cccs3)n2)CC1 | 27 | 30
CN=c1scc(C)n1/N=C\c1cc(Br)c(O)c(Br)c1 | -2 | -4
O=C(Cc1cccc(Cl)c1)Nc1ccc(Cl)nn1 | -3 | 786
CCOC(=O)c1c(C)c(C(=O)CN(C(=O)c2cc(OC)cc(OC)c2)C2CC2)c(C)n1C | -2 | 7
Cc1cccc(CC(=O)N2CCN(C(=O)c3cn(C(C)C)cc4c(=O)n(-c5ccccc5)nc3-4)CC2)c1 | -4 | -8
O=C(c1ccccc1C(F)(F)F)N1CCN(c2nc3nccc(-c4cccs4)n3n2)CC1 | 26 | 17
Cc1nn(Cc2ccccc2)c(=O)c2c1cnn2-c1ccc(F)cc1 | 6 | 6
FC(F)n1ccnc1CSc1nc2ccccc2[nH]1 | 28 | 14
COc1ccc(-n2nc(C(C)(C)C)c3c2N(CC(=O)NCc2ccncc2)C(=O)CSC3c2ccc3c(c2)OCO3)cc1 (stereo unspecified) | 14 | 3
CCOC(=O)[C@H]1C[C@]2(CCCCN(CCOC)C2=O)N(C(=O)CC(C)C)[C@H]1c1ccco1 | 4 | 8
CC1Sc2ccc(C(=O)NCC3COc4ccccc4O3)cc2NC1=O (stereo unspecified) | 1 | 2
O=C(c1cncn1-c1ccccc1)N1CCN(S(=O)(=O)c2c(Cl)cccc2Cl)CC1 | 6 | 1
NCCSc1ncc(C(F)(F)F)cc1Cl | 2 | -4
CCc1ccc2nc(N(CCCn3ccnc3)C(=O)c3cccc(OC)c3OC)sc2c1 | -15 | -22
O=C(Nc1cccc(CN2CCSCC2)c1)N1CCCCCC1 | 2 | 0
SMILES | NPYLR7 agonist | NPYLR7 agonist max-min
Cc1cccc(COc2cccc(C(=O)N3CC(=O)Nc4ccccc43)c2)c1 | 6 | 1
CSCC(=O)Nc1ncn(Cc2ccc(Br)cc2)n1 | -8&6 | -8&6
COc1ccc(S(=O)(=O)Oc2ccc(CN(CC3CCCO3)C(=O)c3cccs3)cc2)cc1 (stereo unspecified) | 3 | 17
CSc1nnc(SCc2ccc([N+](=O)[O-])cc2)s1 | -1 | -2
Cc1cccc(C(C)(C)CNC(=O)NC2CCN(C(=O)C(C)(C)C)CC2)c1 | 0 | -1
CCn1nnc2c(NCC(C)C)ncnc21 | 7 | 2
CCCCCCc1ccc(C(=O)Nc2ccc(N3CCCCC3)c(C(=O)NCCOC)c2)cc1 | 1 | 13
CCCCCCCCCCCCCC(=O)N(CC(=O)N1c2ccccc2-n2cccc2C1c1cc(OC)ccc1OC)C(C)C (stereo unspecified) | 6 | 19
O=C(COc1ccc(Cl)cc1Cl)N[C@H]1C[C@H]2C(=O)NCC(=O)N2C1 | 4 | 1
CC(C)(C)CC(C)(C)Nc1c(-c2ccc(OS(=O)(=O)c3ccccc3)cc2)nc2ccccn12 | 8 | 14
COc1cccc(C(C)N(C)C(=O)c2coc(COc3cccc(F)c3F)n2)c1 (stereo unspecified) | -5 | -8
O=C(O)c1ccccc1C1CCN(C(=O)c2ccccc2-c2ncn[nH]2)C1 (stereo unspecified) | 0 | -2
COc1cccc(Cc2nsc(N(CCC(=O)N3CCN(C/C=C/c4ccccc4)CC3)Cc3ccco3)n2)c1 | -3 | 8
CCc1ccc(NC(=O)C(C)n2cc(C(F)(F)F)ccc2=O)cc1 (stereo unspecified) | 1 | -1
O=C(Nc1cccc(-c2ccco2)c1)C1CCN(C(=O)C2CCCO2)CC1 (stereo unspecified) | 10&-2 | 3&-7
Cn1c(C2CCN(S(C)(=O)=O)CC2)nn(CC(=O)NCC2CCCO2)c1=O (stereo unspecified) | -1 | 7
CC(=O)c1ccc(S(=O)(=O)N2CCN(C(=O)CC(C)C)CC2)cc1 | -6 | -6
O=C(NCCCNC(=O)[C@H]1CCCN1S(=O)(=O)c1ccc(F)cc1)c1ccccc1 | -4 | 4
O=S(=O)(NCc1ccco1)c1cc(Cl)cc(Cl)c1O | 4&7 | 2&4
Cc1cc(C)n(CC2CCCN2C(=O)c2cc(CC(C)C)[nH]n2)n1 (stereo unspecified) | 5 | 2
CC1(C)OCC(C2OC(Nc3ccc(C(=O)NCCC(=O)NCc4ccccn4)cc3)[C@H]3OC(C)(C)O[C@@H]23)O1 (stereo partly specified) | -9 | -12
Nc1nccc(N2CC[C@@H](N3CCOCC3)[C@H](O)C2)n1 | 5 | 2
Cc1ccc(C2(O)CCN(Cc3noc(C4CCCO4)n3)CC2)nc1 (stereo unspecified) | 1 | 0
COc1ccc(/C=C/C(=O)NCCNc2cc(-n3nc(C)cc3C)ncn2)cc1OC | -6 | -14
Cc1cc(C)cc(NC(=O)CC(=O)N(Cc2ccc3c(c2)OCO3)C2CC2)c1 | 13 | 1
SMILES | NPYLR7 agonist | NPYLR7 agonist max-min
O=C(c1ccc([N+](=O)[O-])cc1)N1CCCC(OCc2cc(F)cc(F)c2)C1 (stereo unspecified) | -5 | -5
COCCCN1C(=O)C(Cc2ccccc2)NC12CCN(C(=S)Nc1cccc(C)c1)CC2 (stereo unspecified) | 6 | 3
COc1ccc(C)c2sc(N(CCN3CCOCC3)C(=O)c3cc(C)no3)nc12 | 0 | -1
Cc1nc(SCCNc2nncc(-c3cccc4ccccc34)n2)n[nH]1 | 3 | 4
CCOC(=O)c1cc(-c2ccc(N3CCN(C(=O)c4ccc(Cl)nc4)CC3)cc2)n(-c2ccccn2)n1 | 2 | 1
c1ccc(C2CCCN2Cc2cnc(-c3cccs3)nc2)nc1 (stereo unspecified) | -1 | -1
COc1cccc(Oc2cncnc2-c2ccc(OC)cc2O)c1 | 2 | 0
Cc1ccc[n+](C2=C(c3c(C(C)C)[nH]n(-c4ccc(Cl)c(Cl)c4)c3=O)C(=O)N(C(C)C)C2=O)c1 | 3 | 2
O=C(Nc1ccc2nc(-c3ccccc3)nn2c1)C1CCOCC1 | 18 | 5
COc1cc(=O)n(-c2ccc(F)cc2)nc1C(=O)Nc1cc(F)ccc1F | 4 | -1
O=C(c1cn[nH]n1)N1CCC(n2c(=O)[nH]c3ccccc32)CC1 | -2 | -8
O=C(c1cnc2ccccn2c1=O)N1CCCC(Cn2cc(C3CC3)nn2)C1 (stereo unspecified) | 1 | -6
CNC(=O)CN1CCN(S(=O)(=O)c2ccc(C)cc2Br)CC1 | -2 | 0
COC(=O)Cn1ncccc1=O | -10 | -16
COc1ccc(-c2cc(CO)no2)cc1OC | -4 | -4
Nc1nc(Cl)cc(NCc2ccc(S(=O)(=O)N3CCCC3)s2)n1 | -1 | 0
COc1ccccc1C1CCCN1C(=O)c1cn(Cc2cccc(Cl)c2)nn1 (stereo unspecified) | 18 | 15
CC(C)CCN1CCN(c2cc(Oc3cccc(F)c3)ncn2)CC1C (stereo unspecified) | -9 | -3
CC(c1cccs1)N(C)C(=O)CCn1nnc2ccccc21 (stereo unspecified) | 3 | 0
CC(=O)Oc1c(-c2ccc(NC(=O)c3ccccc3Cl)cc2)c(-c2cccc(C)c2)nn1-c1cccc(F)c1 | -2 | -1
CCCCCCCC(=O)N1CCCC(C(=O)NC2CCCC[C@H]2NC(=O)c2ccc(OC)cc2)C1 (stereo partly specified) | 14 | 15
Nc1ccc(-c2cncc(NCCCN3CCOCC3)n2)cc1 | -9 | -14
Cc1nc(CNCC23CC4CC(CC(C4)C2)C3)cs1 | -2&8 | -2&5
Cc1c(C(=O)N(C)C)cnc2c(-c3ccccc3F)cnn12 | 3 | 0
CC(C)(C)NC(=O)CSc1nnc2n1CCN2c1ccccc1 | -2 | -3

One compound at a time, from the list above. Order of values: NPYLR7 agonist | NPYLR7 agonist max-min
`COc1ccc(-c2cc(CO)no2)cc1OC` as listed: -4 | -4
`CCOC(=O)c1cc(-c2ccc(N3CCN(C(=O)c4ccc(Cl)nc4)CC3)cc2)n(-c2ccccn2)n1` as listed: 2 | 1
`CC(C)(C)NC(=O)CSc1nnc2n1CCN2c1ccccc1` as listed: -2 | -3
`Cc1ccc[n+](C2=C(c3c(C(C)C)[nH]n(-c4ccc(Cl)c(Cl)c4)c3=O)C(=O)N(C(C)C)C2=O)c1` as listed: 3 | 2
`Cc1nc(SCCNc2nncc(-c3cccc4ccccc34)n2)n[nH]1` as listed: 3 | 4

(list continues)
SMILES | NPYLR7 agonist | NPYLR7 agonist max-min
COCCN(Cc1csc(COc2ccccc2C(C)C)n1)C(=O)c1ccccc1OC | 13 | 15
OCC1CCCN1c1cc(N2CCCCCC2)ncn1 (stereo unspecified) | 4 | -1
COc1ccc(C(=O)NC2CCCc3c2cnn3-c2cc(F)cc(F)c2)c(OC)n1 (stereo unspecified) | 7 | 3
COc1cc(-c2c(NC(=O)c3ccc(C)cc3)oc3ccccc3c2=O)cc(OC)c1OC | -4 | -4
Cc1nnc(CNC(=O)c2ccccc2OC2CCCCC2)n1C | -4 | -5
COCc1cc(CN2CCCC(CCC(=O)NC3CC3)C2)ccc1OC (stereo unspecified) | 0 | -1
CCCc1noc(C(C)Sc2n[nH]c(C)n2)n1 (stereo unspecified) | -2 | -6
O=C(OCC(=O)N1CCNC1=O)c1cccnc1Oc1ccccc1 | 5 | 4
Cc1ccc(C2(O)CCN(C(=O)c3c(C)c4cccc(C)c4n3C)CC2)nc1 | -7 | -10
O=C(O)c1cc(-c2ccccc2Cl)nc2cc(-c3ccccc3)nn12 | -9 | -2
CCOC(=O)Cn1c(=O)c2c(nc3n2CCN3c2cccc(C)c2C)n(C)c1=O | 8 | 7
COCCN(CC(=O)N(CCc1c[nH]c2ccccc12)Cc1ccc(OC)c(OC)c1)C(=O)C1C[C@H]1c1ccccc1 (stereo partly specified) | 1 | 3
COc1cc2c(cc1NC(=O)CCN1C(=O)c3ccccc3C1=O)oc1ccccc12 | 9 | 7
Cc1ccc(C(=O)NCCc2ccccc2F)s1 | 8 | 6
CN(C)c1cc(N2CCN(Cc3cccnc3)CC2)nc(N(C)C)c1C#N | 40 | 37

Fetched by structure from the entries so far (6):
SMILES | NPYLR7 agonist | NPYLR7 agonist max-min
COc1cc(-c2c(NC(=O)c3ccc(C)cc3)oc3ccccc3c2=O)cc(OC)c1OC | -4 | -4
O=C(O)c1cc(-c2ccccc2Cl)nc2cc(-c3ccccc3)nn12 | -9 | -2
COc1ccc(C(=O)NC2CCCc3c2cnn3-c2cc(F)cc(F)c2)c(OC)n1 (stereo unspecified) | 7 | 3
O=C(OCC(=O)N1CCNC1=O)c1cccnc1Oc1ccccc1 | 5 | 4
Cc1nnc(CNC(=O)c2ccccc2OC2CCCCC2)n1C | -4 | -5
Cc1ccc(C2(O)CCN(C(=O)c3c(C)c4cccc(C)c4n3C)CC2)nc1 | -7 | -10
